# Compound activity deposited in PubChem by National Center for Advancing Translational Sciences (NCATS).
# gsp antagonist – antagonizes gsp, the McCune-Albright syndrome mutation. gsp-mutant cells, cAMP HTRF, 30 min; control for the full effect not named in the record. 340,000 tested, 0.4% active. AID 624288. Potency, µM (top dose mostly 76.9 µM), for inactives: top-dose activity change, negative = inhibition, actives largely listed as inhibitors; active = falling curve of any shape with a large fitted effect; inconclusive = falling curve, mostly with a smaller effect; inactive = flat or rising curve; cell line not stated here;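 further: intracellular cAMP measured with PDE inhibitor Ro 20-1724 present during compound exposure; potency means the concentration at half of the fitted maximal effect; on the % scale 0 is the no-effect control and ±100 the full control effect; nearly all actives have a fitted effect of over 65% in size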
#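 Cells in G418 medium, seeded 16-24 h, 37C; buffer exchange to DPBS + 1 mM CaCl2, 0.5 mM MgCl2, 0.05% BSA; cpds in DMSO + […] (300 uM stock), 30 min 37C; HTRF cAMP detection.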
# Menin-MLL FL inh – inhibitors of human menin-MLL interaction, wild-type MLL peptide | Fluorescence polarization, fluorescein-MLL peptide displacement from menin | FP activity change, % at 61.4 µM | 290,000 tested, under 10 active | AID 1766; inconclusive = falling polarisation curve, or a change in total fluorescence; inactive = total fluorescence flat and polarisation flat or rising; no compound was filed as active; the % refers to the polarisation; negative = inhibition;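 further: % of control where 0% means no effect; inhibitors lower the polarisation; unlabelled MLL peptide was the positive control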
# D2 agonist – human D2 receptor agonism in beta-arrestin assay; 360,000 tested, 0.084% active; DiscoveRx PathHunter D2 beta-arrestin, luminescence, 90 min; 100% = 57 uM dopamine signal; AID 624465; activation, % (no concentration beside the values); P14416; in the data active = activation above about 40%; inconclusive = about 15% to 40%; inactive = below about 15%; further: compound concentration not given in the record; the text of the record calls up to 30% inactive
# Target sequence (P14416 whole entry, looked up): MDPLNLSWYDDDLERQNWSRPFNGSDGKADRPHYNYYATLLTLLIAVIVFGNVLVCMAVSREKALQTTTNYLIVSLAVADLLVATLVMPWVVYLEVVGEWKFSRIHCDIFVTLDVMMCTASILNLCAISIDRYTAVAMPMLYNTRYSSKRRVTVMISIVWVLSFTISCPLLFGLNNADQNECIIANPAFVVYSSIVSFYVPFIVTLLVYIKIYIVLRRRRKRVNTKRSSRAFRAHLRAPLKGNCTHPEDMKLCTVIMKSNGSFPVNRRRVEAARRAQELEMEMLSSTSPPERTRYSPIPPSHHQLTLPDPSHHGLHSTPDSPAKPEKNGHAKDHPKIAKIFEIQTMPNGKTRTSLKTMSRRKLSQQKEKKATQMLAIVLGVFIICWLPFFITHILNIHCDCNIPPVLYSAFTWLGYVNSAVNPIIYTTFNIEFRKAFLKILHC
#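 DiscoveRx PathHunter D2 beta-arrestin cells (2,100/well) attached overnight, then compound-stimulated 90 min at 37 C in HBSS/10 mM HEPES/0.1% Tween-20 buffer; beta-galactosidase complementation read by luminescence after 1 h at ambient temperature. Dopamine 57 uM final (EC100) as control.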
# gsp agonist – activates gsp, the McCune-Albright syndrome mutation; gsp mutant cells, cAMP HTRF, 30 min; control for the full effect not named in the record; Potency, µM (top dose mostly 76.9 µM), without a hit: at the top dose activation (cAMP increase), hits mostly activators; 340,000 tested, 0.13% active; AID 624287; active = well fitted activation curve with a large enough effect; inconclusive = small, poorly fitted or top-dose-only effect, or another doubt; inactive = no such curve, though single readings can be large or run the other way; cell line not stated here;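 further: phosphodiesterase inhibitor Ro 20-1724 added with compounds to block cAMP breakdown; potency means the concentration at half of the fitted maximal effect; nearly all actives have a fitted effect of over 60% in size; about a fifth of the inactives were tested at one dose only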
#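 Cells in DMEM/10% FBS with G418 were pretreated with compounds in DMSO plus […] (300 uM stock) for 30 min at 37C. cAMP was measured by HTRF (cAMP-d2 plus anti-cAMP antibody-K) after 30 min at room temperature.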
# ClpP mod – qHTS Assay for Activators of ClpP; 340,000 tested, 1.9% active; ATP-dependent Clp protease proteolytic subunit (Bacillus subtilis (strain 168)), P80244; purified B. subtilis ClpP, FRET peptide cleavage, 20 min; Potency, µM (highest dose often 57.5 µM), inactives show at the highest dose activity change, negative = active; active = well fitted falling curve with a large enough effect; inconclusive = small, poorly fitted or top-dose-only effect; inactive = no such curve, though single readings can be large or run the other way; further: potency means the concentration at half of the fitted maximal effect; the source files actives as falling curves though it sought activators and does not explain the sign; nearly all actives have a fitted effect of over 65% in size; many hits overshoot -100%
# Target sequence (P80244 whole entry, looked up): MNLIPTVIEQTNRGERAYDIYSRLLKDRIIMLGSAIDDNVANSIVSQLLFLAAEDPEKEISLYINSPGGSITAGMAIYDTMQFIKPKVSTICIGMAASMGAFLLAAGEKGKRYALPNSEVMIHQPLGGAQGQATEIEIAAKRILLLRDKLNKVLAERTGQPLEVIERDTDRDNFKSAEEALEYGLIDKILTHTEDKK
#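 Buffer: 100 mM Tris/HCl pH8, 100 mM KCl, 0.05% low protease BSA, 2.5% glycerol, 0.01% Tween-20. ClpP 10 microg/mL final; 20 min RT; delta FRET normalized to ADEP and DMSO controls.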
# Sfp inh – blocks B. subtilis Sfp PPTase activity | Q9F4F7 | Biochemical Sfp PPTase activity, qHTS | Potency, µM, inactives show max response, negative = inhibition, most hits filed as inhibitors | 310,000 tested, 3.5% active | AID 1490; active means well fitted inhibition curve with a large enough effect; inconclusive means small, poorly fitted or top-dose-only effect, or another doubt; inactive means no such curve, though single readings can be large or run the other way;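 further: the enzyme is Sfp with the accession as filed and its product quenches rhodamine fluorescence; potency means the concentration at half of the fitted maximal effect; 0% = enzyme reaction without inhibitor and -100% = no enzyme wells; top concentration of the series not given in the record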
#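 Compounds were incubated with enzyme (final 15 nM) for 15 min at room temperature before substrate addition started the reaction. Fluorescence at 525 nm excitation, 598 nm emission was recorded immediately and after 30 minutes.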
# PINK1 modulator – modulators of PINK1 expression. PINK1 immunofluorescence, high-content cytometry, 24 h. Potency, µM (highest dose often 76.6 µM), without a hit: at the highest dose activation (PINK1 increase), actives largely listed as activators. 410,000 tested, 0.2% active. AID 624263; active = well fitted activation curve with a large enough effect; inconclusive = small, poorly fitted or top-dose-only effect; inactive = flat fitted curve, though single readings scatter; cell line not stated here;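 further: potency means the concentration at half of the fitted maximal effect; % of control where 0% means no effect; nearly all actives have a fitted effect of over 65% in size; a mitochondrial uncoupler was the plate control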
#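 Measures PINK1 amount and localization on or inside mitochondria by immunofluorescence. Stable cells get compounds at 5 concentrations for 24 hours before fixation and staining; CCCP controls included.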
# * = called active by the depositor; ? = inconclusive; . = not tested or not shown; & = joins results of further samples; [ ] = remark or other dose. Random draw from the library (roughly 5.1% active in at least one column).
compound,gsp antagonist,Menin-MLL FL inh,D2 agonist,gsp agonist,ClpP mod,Sfp inh,PINK1 modulator
CN(C)S(=O)(=O)c1cccc(N2C(=O)CC3(CCCCC3)CC2=O)c1,-4%,-3.4,0.7,?,-0.9%,14%,1.0%
Cc1cccc(NC(=O)CNC(=O)COC(=O)C2CC2C)c1C (stereo not drawn),6%,.,1.8,-4%,-1.5%,.,10%
Cn1nc(C(=O)OCC(=O)NCc2ccc(Cl)cc2Cl)c2ccccc2c1=O,.,.,-3.1,13%,-7.4%,.,2.1%
CCCCCN(C(=O)CCC(=O)OCc1ccccc1F)c1c(N)n(CCCC)c(=O)[nH]c1=O,8%,.,-4.4,-6%,-4.3%,.,-1.3%
O=C(O)C1CC1C(=O)Nc1cc(F)ccc1F (stereo not drawn),5%,-2.3,1.2,6%,.,6%,-1.0%
CC1CCN(C(=O)C2CCC(=O)N(Cc3ccc(Cl)cc3)C2)CC1 (stereo not drawn),15%,.,10,4%,2.0%,13%,0.2%
Cc1cccc(C(=O)NCC(=O)NCC(c2cccs2)N2CCOCC2)c1 (stereo not drawn),1%,.,2.5,4%,-6.8%,.,2.1%
Clc1ccc(Sc2ccccn2)cc1,11%,0.4,0.2,-33%[inhibitor],-0.1%,-4%,3.6%
Cn1c(N)c(C(C[N+](=O)[O-])c2c(F)cccc2Cl)c(=O)n(C)c1=O (stereo not drawn),-3%,-0.3,9.4,-34%,0.0%,19%,-1.3%
Cc1ccc(N2C(=O)CS(=O)C(c3ccccc3)C2=O)cc1C (stereo not drawn),14%,-0.6,-1.4,-5%[15.4 µM],.,3.2µM*,-0.1%
Oc1ccc2c(c1)c1c3n2CCNC3CCC1 (stereo not drawn),?,-6.4,-2.2,28%[15.4 µM],?,15%,-1.1%
COc1cc(S(=O)(=O)N(C)Cc2ccc3c(c2)OCCO3)ccc1NC(C)=O,5%,.,-2.8,-34%[inhibitor],-0.9%,.,-1.6%
CC(C)(C)c1ccc(C(=O)Nc2cnccn2)cc1,6%,0.3,-1.9,-34%[inhibitor],1.1%,14%,?
CCOC(=O)Nc1ccc(C(=O)Oc2ccccc2)c(O)c1,-22%,3.9,0.3,11%,7.4%,-9%,-2.5%[38.3 µM]
O=C(O)C1Nc2c(C(=O)N3CCOCC3)cccc2C2C=CCC12 (stereo not drawn),-10%,?,7.1,?,-8.4%,7.1µM*,-3.8%
COc1ccc(S(=O)(=O)N2CCc3cc4c(cc3C2C)OCCCO4)cc1 (stereo not drawn),0%,.,-4.1,14%,-7.0%,-1%,0.8%
COc1ccccc1NC(=O)NC(=O)N(C(C)C)S(C)(=O)=O,-6%,-1.4,-2.7,-15%,0.4%,7%,6.6%[38.3 µM]
COc1ccc(CC(=O)c2cc(OC)c(OC)cc2CC(=O)O)cc1OC,-6%,0.9,1.2,-17%,1.2%,4%,0.1%
COc1ccccc1NC(=O)COC(=O)C1C2CC3OC(=O)C1C3C2 (stereo not drawn),-1%,6.4,2.2,14%,.,2%,1.9%
C1=Nc2c(Nc3ccccc3)ncnc2Oc2ccccc21,4%,0.7,-5.0,-52%[inhibitor],-1.9%,-4%,2.5%[38.3 µM]
CCC(=O)N1CCc2cc(Br)cc(S(=O)(=O)NCCN3CCCC3)c21,2%,0.4,-1.4,6%,.,12%,1.0%
O=C(Nc1cccc(Cl)c1Cl)c1csc([C@@H]2O[C@H](CO)[C@H](O)[C@H](O)[C@H]2O)n1,.,.,-11,.,2.0%,.,-1.1%
Cc1ccc[n+](CC(=O)Nc2ccc([N+](=O)[O-])cc2)c1,0%,-1.5,-0.4,-22%,-2.1%,6%,-1.6%
Cc1cccc(CN(Nc2ccccc2)c2ccccc2)n1,.,.,-3.9,?,-0.9%,.,6.3%
COc1ccccc1CC(=O)Nc1ccc(S(=O)(=O)N2CCCC2)cc1,-4%,-0.4,-5.1,17%[15.4 µM],.,5%,2.5%
Cc1cc(C)n(-c2cc(-n3nc(C)cc3C)ncn2)n1,7%,0.2,-3.8,-1%,-0.5%,-2%,-1.2%
CC(=O)NCCc1nc2cc(NC(=O)COc3ccc(C)cc3)ccc2n1C,.,0.3,-0.4,9%[15.4 µM],.,2%,-0.5%
Cc1ccc(OCCNC(=O)c2cccc(Oc3ccc(C(F)(F)F)cc3[N+](=O)[O-])c2)cc1,-8%,2.8,-10,-23%,0.9%,18%,-0.5%
O=C(CCc1nc2sc3c(c2c(=O)[nH]1)CCCC3)NCC(=O)Nc1ccccc1Br,-14%,.,-5.3,10%,-3.3%,.,-1.7%
CCc1ccccc1OCCCCN1CCCCC1,-2%,-3.0,1.6,11%[15.4 µM],1.6%,-1%,1.4%
CCN(CC)C(=O)C1CCCc2c1[nH]c1ccc(Cl)cc21 (stereo not drawn),0%,-22,-3.2,8%,1.4%,3%,1.6%
Cc1ccccc1NC(=O)Cc1nc(CN(C)CC(=O)Nc2cccc(F)c2)cs1,-11%,.,-1.1,?,-5.2%,.,1.6%
Nc1[nH]c(N=NC(=O)c2ccccc2O)c2ccccc12,-1%,.,-7.1,19%,-3.0%,21%,-0.7%
Cc1ccc(NC(C(=O)c2ccccc2)c2ccccc2)cc1 (stereo not drawn),-8%,.,-5.7,?,.,.,35µM*
CCOC(=O)C1CN(S(=O)(=O)c2ccc(OC)cc2)c2cc(S(=O)(=O)CC)ccc2O1 (stereo not drawn),-10%,0.1,-1.9,-57%[inhibitor],2.7%,-1%,2.1%
O=C(Nc1ccccc1C(F)(F)F)NC1(C(=O)N2CCOCC2)CCCCC1,?,.,-4.1,32%[15.4 µM],.,.,-0.8%
C[C@H](NC(=O)c1ccco1)C(=O)Nc1cccc([N+](=O)[O-])c1,11%,0.1,-0.2,-5%[15.4 µM],-5.0%,20%,-1.4%
Cc1cccc(N2CCN(Cc3ccoc3)CC2)c1C,-2%,0.3,-2.0,-18%,0.3%,-10%,-0.6%[38.3 µM]
O=C(COC(=O)c1cc(Br)ccc1O)NC1CCCCCC1,6%,.,1.4,-9%,-4.1%,.,?
COc1ccc(S(=O)(=O)N2CCN(CC(=O)NC3CC3)CC2)cc1,2%,.,-2.4,-23%,-4.5%,23%,0.6%
Cc1cc(C)nc(NNC2=CC(=[N+]3CCCC3)CCC2)n1,-4%,-1.0,-5.7,-1%[15.4 µM],-5.8%,-98%,-0.5%
OCCC1CN(CC(c2ccccc2)c2ccccc2)CCN1C1CCCC1 (stereo not drawn),11%,2.2,1.5,?,.,-1%,7.6%
O=C1NC(=Nc2ccc(O)cc2)S/C1=C/c1ccco1,0%,?,2.3,-5%,.,-1%,-1.5%
Cc1nc(C)c(C(=O)OCC(=O)Nc2ccc(C)c(C)c2)s1,.,.,-3.9,2%,-1.7%,.,-1.1%
CCOC(=O)C1CCCN(C(=O)c2ccc(C)c(S(=O)(=O)N3CCCCC3)c2)C1 (stereo not drawn),-6%,.,-0.4,1%,-2.1%,.,-1.2%
Cc1ccc(NC(=S)NCC(O)c2ccccc2)c(C)c1 (stereo not drawn),-2%,0.6,-3.1,-9%[15.4 µM],?,5%,-0.5%
O=C(Nc1ccc2c(c1)OCO2)c1cccc(F)c1,-6%,0.2,-1.5,-2%,2.7%,11%,-0.5%
CN/C(=C/[N+](=O)[O-])NCCSCc1csc(CN(C)C)n1,-2%,.,-3.8,.,-1.2%,.,-0.5%
O=C(CNC(=O)c1cccc(Br)c1)N/N=C/c1ccc[nH]1,-1%,-0.5,-0.7,6%,.,-9%,3.1%
COC(=O)[C@@]1(Cc2ccc(F)cc2)[C@H]2c3cc(C(=O)N4CCCC4)n(Cc4ccc(C(F)(F)F)nc4)c3C[C@H]2CN1C(=O)c1ccccc1,-11%,2.7&12,-2.5,.,-2.2%,-2%&12%,2.2%
O=C(NCCn1ccc2ccccc21)c1ccc(S(=O)(=O)N2CCOCC2)cc1,3%,2.2,-3.0,-3%,0.9%,6%,2.5%
COc1cccc(NC(=O)c2ccc3nc(C)sc3c2)c1,-9%,0.6,-2.6,-18%,0.0%,-1%,2.7%
O=C(c1cc(-c2ccccc2)nc2ccccc12)N1CCN(c2ccccn2)CC1,-8%,3.8,-1.4,-1%,-1.3%,3%,2.4%
CCOc1cc(N2CCOCC2)c(OCC)cc1NC(=O)CSc1n[nH]c(N)n1,.,-0.1,2.0,-8%[15.4 µM],.,-1%,2.2%
N#Cc1c(SCC(N)=O)nc(-c2ccccc2)c2c1CCCC2,-17%,-0.9,-0.8,-8%,-0.9%,15%,-0.9%
COC(=O)c1sc2ncn(CC(=O)N(C)C3CCCCC3)c(=O)c2c1C,1%,5.1,-5.5,12%[15.4 µM],1.5%,11%,0.8%
O=C(c1ccco1)N1CCC2(CCN(Cc3ccncc3)CC2)CC1,.,-3.0,.,.,.,11%,-0.7%
CCOc1ccc(N(CC(=O)OC)S(=O)(=O)c2ccc(OC)c(OC)c2)cc1,11%,0.3,-2.6,26%,-1.7%,17%,-1.7%
COc1ccc(C(=O)O/N=C/c2ccc(S(=O)(=O)c3ccc(Cl)cc3)nc2)cc1,1%,.,-4.4,-2%[15.4 µM],.,.,6.0%
COc1cc(OC)cc(C(=O)Nc2nnc(Cc3ccc(OC)c(OC)c3)s2)c1,6%,0.8,-3.7,0%[15.4 µM],-1.8%,10%,1.0%
COc1ccccc1NC(=O)c1ccc(S(=O)(=O)N2CCCC(C)C2)cc1 (stereo not drawn),-43%,1.8,-2.9,19%[15.4 µM],-1.3%,5%,3.3%
CC1CCc2cc(F)ccc2N1C(=O)CSc1nnc2c3ccccc3n(C)c2n1 (stereo not drawn),-3%,3.3,-2.9,4%,-1.2%,12%,6.2%[38.3 µM]
Cc1ccc(NC(=O)CCNS(=O)(=O)c2ccccc2)cc1S(=O)(=O)N1CCOCC1,-7%,.,-2.6,?,0.8%,.,0.4%
